Bioassay records deposited in PubChem BioAssay by National Center for Advancing Translational Sciences (NCATS).
NS1 inh = blocks influenza NS1 protein function. S. cerevisiae slowed by influenza A NS1, growth recovery by OD600. Potency, µM (titrated, usually from 46.1 µM), without a hit: top-dose activity, positive = more growth. AID 2326. actives 0.4% (n = 270,000); active means well fitted rising curve with a large enough effect; inconclusive means small, poorly fitted or top-dose-only effect; inactive means no such curve, though single readings can be large or run the other way; further: nearly all actives have a fitted effect of over 50% in size
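A cell-based growth assay was used: compounds that relieve NS1-induced slow growth of budding yeast raise OD600. Assay medium was yeast nitrogen base with ammonium sulphate and -URA supplement, pH 6.0, with 2% galactose.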
RE007 growth inh = less growth of the S. pombe RE007 Vpr strain | AID 651644 | S. pombe RE007 Vpr strain, BacTiter-Glo ATP luminescence, 24 h; control for the full effect not named in the record | Potency, µM (titrated, usually from 92.2 µM), without a hit: at the highest dose activity change, negative = less growth | actives 0.21% (n = 360,000); active = well fitted falling curve with a large enough effect; inconclusive = small, poorly fitted or top-dose-only effect; inactive = no such curve, though single readings can be large or run the other way;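 further: on the % scale 0 is the no-effect control and ±100 the full control effect; nearly all actives have a fitted effect of over 50% in size; the assay follows cell death caused by Vpr and the record does not say whether a fall means rescue or toxicity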
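Fission yeast RE007 carrying one integrated HIV-1 vpr copy, seeded at OD 0.01 in PMG+AL medium with 23 nL pinned compound. Grown 24 h at 30 degrees; viability read by BacTiter-Glo luminescence after 5 min.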
Cruzain Triton = cruzain (T. cruzi) inhibition with detergent; P25779; purified cruzain, Z-FR-AMC fluorescence, 0.01% Triton; Potency, µM, inactives show max response, negative = inhibition, actives largely listed as inhibitors; actives 0.43% (n = 200,000); AID 1478;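 further: plate controls were neutral wells for no effect and buffer without enzyme for full effect; nearly all actives have a fitted effect of over 40% in size; top concentration of the series not given in the record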
Target sequence (P25779 123-467 limits assumed): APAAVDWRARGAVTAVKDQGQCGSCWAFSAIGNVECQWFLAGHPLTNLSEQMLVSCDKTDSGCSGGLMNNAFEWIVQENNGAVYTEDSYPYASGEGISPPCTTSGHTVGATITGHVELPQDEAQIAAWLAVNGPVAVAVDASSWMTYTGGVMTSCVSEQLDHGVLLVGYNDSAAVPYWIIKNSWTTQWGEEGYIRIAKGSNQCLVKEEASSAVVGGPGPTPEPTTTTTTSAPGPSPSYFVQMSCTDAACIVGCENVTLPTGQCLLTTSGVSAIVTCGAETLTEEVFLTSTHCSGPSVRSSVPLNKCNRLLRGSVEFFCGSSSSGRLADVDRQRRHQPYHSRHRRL
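Compounds were screened in titration against cruzain (1.5 nM) with 0.01% Triton X-100 to counter colloidal aggregation. Activity was the AMC fluorescence increase over 60 s after adding 2 uM Z-FR-AMC at pH 5.5.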
Cruzain noTriton = cruzain (T. cruzi) inhibition without detergent. P25779. purified cruzain, Z-FR-AMC fluorescence, no detergent. Potency, µM, without a hit: max response, negative = inhibition, most hits filed as inhibitors. actives 2.3% (n = 200,000). AID 1476;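 further: plate controls were enzyme without inhibitor for no effect and buffer without enzyme for full effect; nearly all actives have a fitted effect of over 40% in size; top concentration of the series not given in the record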
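Detergent-free condition (0.00005% Triton X-100) in acetate buffer pH 5.5 with DTT. 1.5 nM enzyme and compound were pre-mixed 15 min, then 2 uM Z-FR-AMC substrate added; reaction progress from fluorescence change between first and third reads (60 s).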
LASV entry inh = Lassa virus entry inhibition; Lassa virus pseudotype entry inhibition, cell reporter; control for the full effect not named in the record; Potency, µM (top dose mostly 37.9 µM), without a hit: top-dose activity change, negative = inhibition, actives largely listed as inhibitors; actives 1.2% (n = 300,000); AID 540256; active means well fitted inhibition curve with a large enough effect; inconclusive means small, poorly fitted or top-dose-only effect, or effect the other way; inactive means flat fitted curve, though single readings scatter; tested in HEK293 cells; further: on the % scale 0 is the no-effect control and ±100 the full control effect; nearly all actives have a fitted effect of over 50% in size; luciferase read-out
MARV entry inh = inhibitors of Marburg virus binding or cell entry | AID 540276 | Marburg virus pseudotyped entry inhibition, cell reporter; control for the full effect not named in the record; about a third of the inactives were read at about 46 µM | actives 1.8% (n = 300,000) | Potency, µM (titrated, usually from 37.8 µM), inactives show at the highest dose activity change, negative = inhibition, hits mostly inhibitors; active = well fitted inhibition curve with a large enough effect; inconclusive = small, poorly fitted or top-dose-only effect, or effect the other way; inactive = flat fitted curve, though single readings scatter; tested in HEK293 cells; about a fifth of its hits are not listed in these tables; further: on the % scale 0 is the no-effect control and ±100 the full control effect; luciferase read-out
SARS PLpro yeast = SARS-CoV PLP inhibition in yeast; AID 485353; Potency, µM (doses to about 32.9 µM), for the others: top-dose activity, positive = growth rescue; S. cerevisiae expressing SARS-CoV PLpro, growth rescue; control for the full effect not named in the record; actives 0.19% (n = 330,000); active means well fitted rising curve with a large enough effect; inconclusive means small, poorly fitted or top-dose-only effect; inactive means no such curve, though single readings can be large or run the other way; further: 0% is about no effect; nearly all actives have a fitted effect of over 55% in size; growth read by luminescence after 48 h
StopGo reporter = FMDV 2A StopGo reporter, luciferase signal. human cells with a luciferase reporter of 2A StopGo recoding; control for the full effect not named in the record. Potency, µM (doses to about 57.9 µM), without a hit: at the top dose signal change, negative = less light. actives 1.2% (n = 410,000). AID 1159524; active = well fitted falling curve with a large enough effect; inconclusive = small, poorly fitted or top-dose-only effect; inactive = no such curve, though single readings can be large or run the other way; tested in HEK293T cells; further: on the % scale 0 is the no-effect control and ±100 the full control effect; nearly all actives have a fitted effect of over 45% in size; luciferase light after 4 h
* hit, by the source's call; ? = inconclusive; . = not tested or not shown; & = joins results of further samples; [ ] = another dose, or the depositor's remark. Unless noted, the call rests on the fitted dose curve; in most records, active means well fitted curve in the direction sought with a large enough effect; inconclusive means small, poorly fitted or top-dose-only effect, or another doubt; inactive means no such curve, though single readings can be large; an effect the other way counts as inactive or inconclusive. Potency means the concentration at half of the fitted maximal effect.

Structure	Cruzain Triton	LASV entry inh	RE007 growth inh	StopGo reporter	NS1 inh	Cruzain noTriton	SARS PLpro yeast	MARV entry inh
CC1=C(C(=O)Nc2ccc([N+](=O)[O-])cc2)C(c2cccc(C(F)(F)F)c2)NC(=S)N1c1ccccc1 (configuration not stated)	-9.1%	?	0%	-16%	27%	?	-1%	?
CC(C)c1ccccc1NC(=O)c1ccc2ncsc2c1	.	.	23%	?	0%	.	-2%	-15%[46.1 µM]
c1cc(-c2noc(CC3CCCCC3)n2)ccn1	1.3%	?	4%	20%	-29%	1%	-1%	6%[46.1 µM]
CCOC(=O)C1CCCN(C(=O)c2cc3cc(OC)c(OC)cc3[nH]2)C1 (configuration not stated)	.	-19%	10%	30%[activator]	-2%	.	0%	6%
Cc1c(Cl)cccc1NC(=O)CC(c1ccc(F)cc1)N1Cc2ccccc2C1=O (configuration not stated)	-2.2%	-28%[46.1 µM]	.	-4%	.	-12%	.	.
C=CCC1NS(=O)(=O)O[C@H](CCCC)[C@@H]1O (some centres not stated)	.	.	12%	0%	18%	.	6%	.
CN(C(=O)CSc1ncnc2sccc12)c1c(N)n(Cc2ccccc2)c(=O)[nH]c1=O	.	.	9%	-22%	4%	.	1%	.
O=C(O)c1ccc(C2SCC(=O)N2Cc2ccccc2)cc1 (configuration not stated)	4.8%	2%	1%	-11%	2%	3%	-2%	4%
CC1=NN(c2ccccc2)C(=O)C1C(=O)c1ccccc1 (configuration not stated)	-4.3%	?	-14%	0%	5%	-1%	?	?
Cc1cc(=O)[nH]c2nnc(SCc3ccc(Cl)cc3)n12	5.6%	8%[46.1 µM]	.	7%	.	?	.	.
COc1ccccc1NC(=O)C(=O)/C=C(\O)c1ccccc1	.	-11%	-23%	-7%	-3%	.	1%	?
CCOC(=O)c1c(/N=C/c2c(O)n(-c3cccc(C)c3)c(=O)[nH]c2=O)sc2c1CCCC2	-8.3%	1%	-18%	0%	9%	-4%	3%	8%
COc1cccc(-c2nc(NC(C)(C)C)c3ccccc3n2)c1O	-6.2%	?	-7%	25µM*	6%	-3%	-7%	-27%
Cc1ccc(-c2cc(C(=O)Nc3ccc(S(=O)(=O)Nc4ncccn4)cc3)c3ccccc3n2)cc1	-5.4%	10%	3%	30%[activator]	4%	-16%	-18%	-2%
O=C(Nc1cccc(C(=O)OCc2cc(=O)n3c4c(sc3n2)CCCC4)c1)c1ccc(Cl)cc1	0.3%	2%[46.1 µM]	.	-19%	.	-1%	.	.
CCn1cc(C(=O)NC2CC(C)(C)Cc3c2cnn3-c2cccc(F)c2)cn1 (configuration not stated)	.	?	4%	2%	9%	.	?	-14%
CC(C)C(Nc1ccc(S(=O)(=O)N2CCOCC2)cc1[N+](=O)[O-])C(=O)O (configuration not stated)	.	-3%	10%	1%	5%	.	-1%	?
CC(Nc1ccccc1N1CCCCC1)C(=O)N1CCc2ccccc21 (configuration not stated)	.	-3%	2%	?	.	.	0%	-8%
Cc1ccc(-c2csc(NCCn3c(-c4ccncc4)nc4ccccc43)n2)cc1	.	.	5%	?	13%	.	-12%	.
CC(C)(C)c1ccc(C(=O)Nc2cc(-c3ccccc3)nn2-c2ccccc2)cc1	0.4%	0%[46.1 µM]	.	-5%	.	?	.	.
COCCCNC(=O)c1oc2c(c1C)-c1nn(Cc3ccccc3Cl)cc1CC2	-3.3%	1%[46.1 µM]	.	-11%	.	-15%	.	.
COc1ccc(C(=O)Nc2ccccc2C(=O)N/N=C/c2ccc(O)c(OC)c2)cc1	-12%	0.35µM*	7.9µM*	4µM*	3%	?	-36%	0.4µM*
CC(C)OC(=O)C(C)Oc1ccc(C(=O)NCCc2ccccc2)cc1 (configuration not stated)	5.1%	6%	3%	47%[activator]	-52%	-8%	-4%	?
CC(NC(=O)COc1ccccc1)C1COc2ccccc2O1 (configuration not stated)	.	-1%	-18%	-15%	2%	.	.	0%

Nine consecutive entries already listed, quoted:
Structure	Cruzain Triton	LASV entry inh	RE007 growth inh	StopGo reporter	NS1 inh	Cruzain noTriton	SARS PLpro yeast	MARV entry inh
CCn1cc(C(=O)NC2CC(C)(C)Cc3c2cnn3-c2cccc(F)c2)cn1 (configuration not stated)	.	?	4%	2%	9%	.	?	-14%
CC(C)C(Nc1ccc(S(=O)(=O)N2CCOCC2)cc1[N+](=O)[O-])C(=O)O (configuration not stated)	.	-3%	10%	1%	5%	.	-1%	?
CC(Nc1ccccc1N1CCCCC1)C(=O)N1CCc2ccccc21 (configuration not stated)	.	-3%	2%	?	.	.	0%	-8%
Cc1ccc(-c2csc(NCCn3c(-c4ccncc4)nc4ccccc43)n2)cc1	.	.	5%	?	13%	.	-12%	.
CC(C)(C)c1ccc(C(=O)Nc2cc(-c3ccccc3)nn2-c2ccccc2)cc1	0.4%	0%[46.1 µM]	.	-5%	.	?	.	.
COCCCNC(=O)c1oc2c(c1C)-c1nn(Cc3ccccc3Cl)cc1CC2	-3.3%	1%[46.1 µM]	.	-11%	.	-15%	.	.
COc1ccc(C(=O)Nc2ccccc2C(=O)N/N=C/c2ccc(O)c(OC)c2)cc1	-12%	0.35µM*	7.9µM*	4µM*	3%	?	-36%	0.4µM*
CC(C)OC(=O)C(C)Oc1ccc(C(=O)NCCc2ccccc2)cc1 (configuration not stated)	5.1%	6%	3%	47%[activator]	-52%	-8%	-4%	?
CC(NC(=O)COc1ccccc1)C1COc2ccccc2O1 (configuration not stated)	.	-1%	-18%	-15%	2%	.	.	0%

(further entries)
Structure	Cruzain Triton	LASV entry inh	RE007 growth inh	StopGo reporter	NS1 inh	Cruzain noTriton	SARS PLpro yeast	MARV entry inh
CCN(CCN1CCCC1)C(=O)C1CCC(=O)N(CCCN2CCOCC2)C1 (configuration not stated)	.	-5%	-10%	-5%	12%	.	4%	30%
Cc1[nH]n(C(N)=S)c(=O)c1N=Nc1ccccc1C(F)(F)F	.	.	-25%	1%	-83%	.	3%	.
Nc1nnc(CCN2CCCCC2)s1	0.1%	-2%	-1%	-18%	-4%	-2%	2%	22%&22%&22%
CCOc1ccc(/C=N/NC(=O)C(C)Sc2ccccn2)cc1OCC (configuration not stated)	-2.1%	-8%[46.1 µM]	0%	-5%	2%	1%	7%	-13%[46.1 µM]
COc1ccc(Cn2nnnc2C(c2cc(OC)ccc2OC)N2CCC(C(N)=O)CC2)cc1 (configuration not stated)	0.1%	-7%	-16%	2%	-12%	26%	-7%	5%
Cc1ccn2c(NC(=O)c3ccccc3)c(-c3cccs3)nc2c1	2.9%	7%	1%	17%	-2%	-10%	3%	?
COc1ccc(C(=O)Nc2cccc(OCc3cc(=O)n4c5c(sc4n3)CCCC5)c2)cc1	0.5%	15%[46.1 µM]	.	-5%	.	-4%	.	2%[46.1 µM]
CCN(C(=O)CSc1n[nH]c(N)n1)c1cccc2ccccc12	.	-3%	9%	-19%	.	.	0%	13%
CCOC(=O)C12CNC(=O)C(C(=O)OCC)(CNC1=O)C2	-1.9%	-1%	-6%	-14%	-1%	-4%	6%	0%
CCOC(=O)c1cnc(SCC(=O)Nc2ccc(NC(C)=O)c(OC)c2)nc1N	-5.3%	-6%	12%	25%	-7%	-4%	1%	?
Cc1ccc2nc(Cl)c(C3CC(c4ccco4)=NN3C(=O)CCCC(=O)O)cc2c1 (configuration not stated)	.	?	1%	-23%	9%	.	1%	10%[46.1 µM]
COc1cc(CCCN2C(N)=NC[C@@H]2c2ccccc2)cc(OC)c1OC	.	.	-6%	7%	5%	.	0%	.
Cc1cc([N+](=O)[O-])nn1CC(=O)NC(C)c1ccccc1 (configuration not stated)	.	-4%	3%	-14%	15%	.	-1%	12%
Cc1nn(S(=O)(=O)c2cccs2)c(C)c1Sc1ccccc1	-1.4%	.	.	.	-16%	3%	-27%	-3%
CCOc1ccc2c(c1)c(N=O)c(O)n2C	-7.5%	-3%	-11%	-13%	6%	-1%	14%	-12%
COc1cc(C2CC(=O)N(c3ccccc3)C3=C2C(=O)OC3)cc(OC)c1OC (configuration not stated)	0.2%	10%[46.1 µM]	.	-6%	.	-9%	.	1%[46.1 µM]
O=C(NC1CCCC1)C(c1cccs1)N(Cc1ccco1)C(=O)Cn1nnc(-c2cccs2)n1 (configuration not stated)	6.8%	7%	9%	-23%	-27%	13%	1%	-20%
O=C(Nc1ccc(-n2ccc(C(F)(F)F)n2)cc1)c1cccs1	.	?	-7%	-2%	-46%	.	-3%	7%[46.1 µM]
C/C(=N\NC(=O)CCCOc1ccc(Cl)cc1C)c1ccc(C)o1	-2.9%	3%	-7%	-8%	-5%	0%	16%	?
COc1ccccc1/C=C/C=N/n1c(-c2n[nH]c3c2CCC3)n[nH]c1=S	.	.	7%	-22%	16%	.	1%	.
COc1ccc(Cl)cc1NC(=O)Nn1cnnc1	6.0%	?	6%	15%	-4%	9%	3%	2%
CCOC(=O)c1ccc(N2C(=O)CC(Nc3ccc(O)cc3)C2=O)cc1 (configuration not stated)	.	-3%[46.1 µM]	-8%	-1%	-68%	.	1%	?
O=C(COC(=O)CC1SC(N2CCCC2)=NC1=O)Nc1ccc(Br)cc1 (configuration not stated)	.	15%	1%	4%	.	.	0%	1%
COc1ccccc1-c1c(C)oc2c(CN3CCN(C)CC3)c(O)ccc2c1=O	-1.4%	5%	-9%	1%	3%	-6%	13%	3%
N#Cc1ccc(OC(=O)c2cnccn2)cc1	.	2%[46.1 µM]	3%	-12%	19%	.	3%	3%[46.1 µM]

Outcome played no part in choosing rows; 4.5% or so of the library scored in one or more.
